Bioassay records as filed in PubChem.
miR-21 reporter: raises the signal of a miR-21 reporter | Potency, µM (highest dose often 38.3 µM), inactives show at the highest dose reporter change, positive = more light | HeLa miR-21 FLuc reporter, luciferase, 48 h | 340,000 tested, under 10 active | AID 2288; active = well fitted rising curve with a large enough effect; inconclusive = small, poorly fitted or top-dose-only effect; inactive = no such curve, though single readings can be large or run the other way;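 note: % of control where 0% means no effect; miR-21 action dims this reporter so a rising signal means less miR-21 action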
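HeLa cells stably expressing CMV-driven firefly luciferase with a downstream miR-21 binding sequence, endogenously expressing miR-21, were treated with titrations (up to about 40uM final) for 48 hours at 37 degree Celsius. Luciferase luminescence was read after lysis.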
An asterisk follows results filed as active; ? = inconclusive.

SMILES	miR-21 reporter
Cc1ccc(NC(=O)Cn2c(=O)n(-c3ccc(C)cc3)c(=O)c3ccc(C(=O)NCc4ccccc4Cl)cc32)cc1	0%
COc1ccc(-c2noc(CCC(=O)NCc3ccc(OC)cc3OC)n2)cc1	0%
Cc1c(C2=CCN(S(=O)(=O)c3ccc(Br)cc3)CC2)c2ccccc2n1CC(=O)N1CCCC1	-1%
COc1ccc(-n2nnc(-c3nsc(NC(=O)c4cccc(C)c4)n3)c2C)cc1OC	-24%
Cn1c(-n2cccc2)c(-c2c(-c3ccc(F)cc3)[nH]c3c2c(=O)n(C)c(=O)n3C)c(=O)n(C)c1=O	-4%
COc1cc(C)ccc1OCCSc1nc2ccc(NC(=O)c3ccco3)cc2s1	24%
Cc1ccc(S(=O)(=O)Nc2cccc(-c3ccc(N4CCC(C)CC4)nn3)c2)s1	-12%
CCOc1ccc(NC(=O)CSc2nc3ccsc3c(=O)n2C(C)CC)cc1 (stereo not drawn)	-2%
Oc1ccccc1-c1nc(-c2cccs2)c(-c2cccs2)[nH]1	?
COc1ccc(CNC(=O)Cn2ncc3c(=O)oc4ccccc4c32)c(OC)c1	-4%
COc1ccc(NC(=O)C(CC(C)C)NC(=O)C2CCCCC2)cc1 (stereo not drawn)	-5%
CCc1ccc(NC(=O)c2oc3c(c2C)-c2[nH]ncc2CC3)cc1	-1%
CCOC(=O)c1nc(N2CCN(c3ccc(F)cc3)CC2)c2c(C)noc2n1	3%
CCCCSc1nnc2c(n1)OC(c1ccc(C)s1)Nc1ccccc1-2 (stereo not drawn)	-45%
CCCn1c2ccccc2c2cnn(CC(=O)NCCc3ccc(OC)cc3OC)c(=O)c21	-11%
COc1ccc(C(=O)N2CCC(C(=O)Nc3ccc(OC)cc3OC)CC2)cc1	6%
Cc1ccc(N(CC(=O)NCCSc2ccccc2)S(=O)(=O)c2ccc(F)cc2)cc1	?
CCOc1ccc2nc(N3CCCC(C(=O)Nc4ccc(Br)c(C)c4)C3)sc2c1 (stereo not drawn)	-13%
COc1ccc(-n2cc(-c3ccccc3)nc2SCC(=O)Nc2ccccc2)cc1Cl	11%
COc1ccc(-c2nnc(C3CCN(S(=O)(=O)c4ccc(C)c(C)c4)CC3)o2)cc1	1%
COc1ccccc1CNC(=O)c1ccc(C)c(-n2cnc3cccnc32)c1	-11%
O=C(CSc1nccn1Cc1ccccc1)Nc1ccc2c(c1)OCO2	-38%
CCOc1ccc(-c2nonc2NC(=O)c2oc3ccc(Cl)cc3c2C)cc1	?
Cc1ccc(OCc2nc(-c3ccc(C(=O)NCCc4ccc(S(N)(=O)=O)cc4)cc3)oc2C)cc1	-2%
COc1ccc(/C=C\c2onc(C)c2S(=O)(=O)N2CCC(C(=O)Nc3cccc(Cl)c3)CC2)cc1	-1%
COc1ccc2c(CNC3CCCCCC3)c(C(=O)O)n(Cc3ccc(C)cc3)c2c1	27%
COc1ccc(S(=O)(=O)NCCc2csc(-c3cccc(F)c3)n2)cc1OC	3%
COc1cc(Cn2c(=O)oc3ccc(C)cc32)ccc1OCCC(C)C	-1%
COC(=O)c1ccccc1NC(=O)CCCn1nc(C)c2sc3ccccc3c2c1=O	-18%
CCOc1ccc(CCNC(=O)c2cc3c(-c4cccc(OC)c4)nn(C)c3s2)cc1OCC	29%

Laid out differently: 5 of the compounds above.
smiles,miR-21 reporter
O=C(CSc1nccn1Cc1ccccc1)Nc1ccc2c(c1)OCO2,-38%
CCOc1ccc(-c2nonc2NC(=O)c2oc3ccc(Cl)cc3c2C)cc1,?
Cc1ccc(OCc2nc(-c3ccc(C(=O)NCCc4ccc(S(N)(=O)=O)cc4)cc3)oc2C)cc1,-2%
COc1ccc(/C=C\c2onc(C)c2S(=O)(=O)N2CCC(C(=O)Nc3cccc(Cl)c3)CC2)cc1,-1%
COc1ccc2c(CNC3CCCCCC3)c(C(=O)O)n(Cc3ccc(C)cc3)c2c1,27%

Remaining list, next part
SMILES	miR-21 reporter
CC(C)(C)c1ccc(S(=O)(=O)Nc2ccc(O)c(Sc3nc4ccccc4s3)c2)cc1	24%
Cc1cccc(CN2C(=O)c3ccccc3S(=O)(=O)c3ccc(C(=O)N(C)Cc4ccccc4)cc32)c1	16%
Cc1cc(C)cc(NC(=O)CCc2c(C)nc3nc(CNC(=O)c4cccc(F)c4)nn3c2C)c1	-5%
Cc1ccc(-n2c(SCc3nc(-c4ccccc4C)no3)nnc2-c2ccncc2)cc1C	-1%
COc1cccc(CNC(=O)c2cccc(-n3c(C)nc4cccnc43)c2C)c1	3%
Cc1ccccc1NC(=O)CN1C(=O)C(C)(C)c2ccccc21	-3%
CCCCN(CCCC)C(=O)c1cc2c(=O)n3ccccc3nc2s1	-7%
CC(C)(C)c1ccc(C(=O)N2CCC(c3nc(-c4ccc(S(=O)(=O)N5CCCC5)cc4)no3)CC2)cc1	14%
CCC(CC)C(=O)Nc1nnc(SCc2cc(=O)c3ccccc3[nH]2)s1	-1%
CC(=O)N(Cc1cccnc1)c1nc2c(C)cc(C)cc2s1	-18%
Cc1cccc(N(C)S(=O)(=O)c2cc3[nH]c(=O)c(=O)[nH]c3cc2C)c1	2%
Cc1ccc(-c2noc(CSc3nnc(C)n3-c3ccc(F)cc3)n2)cc1	-14%
O=C(CNC(=O)c1ccccc1Cl)OCc1cc(=O)n2nc(C3CC3)sc2n1	-2%
O=C(CSc1nc2c([nH]c3ccccc32)c(=O)n1-c1ccc(Cl)cc1)NC1CCCCC1	-8%
CCN(Cc1nc(-c2ccc(OC)cc2)oc1C)S(=O)(=O)c1ccc(C)cc1	14%
CCOC(=O)CNC(=O)Nc1cc(C(=O)NCc2ccc(C(C)C)cc2)ccc1N1CCCC1	-1%
Cc1cc(/C=C(\C#N)C(=O)Nc2ccccc2)c(C)n1-c1ccc(F)cc1	-18%
Cc1ccccc1-c1noc(CCC(=O)Nc2cccc(C)c2C)n1	2%
COc1ccc(CNC(=O)c2nc(Cn3nc(C)c(Br)c3C)no2)cc1OC	-3%
COc1ccc(-n2nc(C(=O)NCc3ccc(F)cc3Cl)c3c4ccccc4n(C)c3c2=O)cc1Cl	-1%
COc1cccc(Cn2nnc3c(=O)[nH]c(C4CCCN(C(=O)c5ccc(C)cc5)C4)nc32)c1 (stereo not drawn)	-18%
CCOC(=O)c1ccc(NC(=O)C2CC(=O)N(c3ccc(C(C)C)cc3)C2)cc1 (stereo not drawn)	-4%
Cc1nc2ccn(Cc3ccco3)c(=O)c2cc1C(=O)N1CCN(c2ccc(F)cc2)CC1	-8%
COc1ccccc1CCNC(=O)C(=O)NCC(c1ccco1)S(=O)(=O)c1ccccc1 (stereo not drawn)	18%
COc1ccc(Cl)cc1NC(=O)Cn1ncc2c3ccccc3n(C)c2c1=O	-3%
Cc1ccc(CNC(=O)CN2C(=O)COc3ccccc32)cc1	-35%
CCCOc1ccc(-c2nonc2NC(=O)c2oc3ccc(Cl)cc3c2C)cc1OCCC	-3%
CCOc1ccc(CN2CCN(c3ncnc4sc5c(c34)CC(C)CC5)CC2)cc1 (stereo not drawn)	-4%
CN(C(=O)c1ccc2c(c1)N(Cc1ccccc1F)C(=O)c1ccccc1S2(=O)=O)C1CCCCC1	?
CCCN(C(=O)Cn1c(=O)oc2cc(Cl)ccc21)c1ccc(C(C)C)cc1	?
CCOc1ccc2c(c1)c(=O)c(S(=O)(=O)c1ccc(C)cc1)cn2Cc1ccccc1Cl	11%
CCOc1ccc(NC(=O)Cn2c(=O)n(CCc3ccccc3)c(=O)c3c4c(sc32)CN(C(C)=O)CC4)cc1	3%
CCN1C(C(=O)c2ccccc2)=C(OC(=O)COc2ccc(OC)cc2)c2ccccc2S1(=O)=O	?
COc1ccc(NC(=O)c2c(-c3ccccc3)c(-c3ccccc3)nn(C)c2=O)c(OC)c1	16%
COC(=O)c1sc2cccc(F)c2c1S(=O)(=O)N1CCN(c2ccccc2OC)CC1	12%
CCc1nc(SC)ncc1C(=O)NCc1cccc(Br)c1	-11%
COc1ccc(CNC(=O)Cn2ncc3c([nH]c4ccccc43)c2=O)cc1	0%
O=S(=O)(NCc1ccc(F)cc1)c1ccc2[nH]c3c(c2c1)CCCC3	21%
CCC(Oc1ccccc1)C(=O)Nc1ccc(OCc2cc(=O)n3ccccc3n2)cc1 (stereo not drawn)	3%
Cc1cccc(-c2nc3cc(NC(=O)c4ccc(OCC(C)C)cc4)ccc3o2)c1	-8%
Cc1nc(N2C(=O)c3oc4ccccc4c(=O)c3C2c2ccccc2F)sc1C (stereo not drawn)	-14%
COc1ccc(-c2oc3ncn4nc(-c5cccc(C)c5)nc4c3c2-c2ccc(OC)cc2)cc1	-7%
COc1ccc(NC(=O)N2CCOc3ccc(Cl)cc32)cc1	4%
O=C(CSc1nnc(-c2ccc(Cl)cc2)o1)Nc1ccc(F)cc1	-60%
CCOc1ccc(C2CC(=O)n3nc(-c4ccc(C)cc4)nc3S2)cc1OC (stereo not drawn)	-22%
Cc1ccc(S(=O)(=O)NCC2CCC(C(=O)NCCc3ccc(Cl)cc3)CC2)cc1 (stereo not drawn)	-3%
COC(=O)c1scc(-c2ccc(C)cc2)c1S(=O)(=O)Nc1cccc(Cl)c1C	11%
CN(C)CCCNC(=O)C(=O)NCC(c1ccc2c(c1)OCO2)N1CCOCC1 (stereo not drawn)	-4%
O=C(CSc1nc2c(c(=O)[nH]1)CCCC2)Nc1ccccc1C(F)(F)F	1%
CCCN1C(=O)c2[nH]nc(-c3ccccc3O)c2C1c1ccc(OCc2ccccc2)c(OC)c1 (stereo not drawn)	?
CCCCN(C)C(=O)Cn1cnc2sc(C)c(S(=O)(=O)N3CCC(C)CC3)c2c1=O	2%
COc1cccc(-n2cc(C(=O)NCc3cccc(Cl)c3)c3ccccc3c2=O)c1	3%
COc1ccc(NS(=O)(=O)c2cnc(N)nc2)cc1Cl	-6%
CCCOc1ccc(CNC(=O)c2ccc(-n3c(C)cc4c3CCC(C)C4)cc2)cc1 (stereo not drawn)	?
Cc1ccc(-c2nc(SCC(=O)NCC3CCCO3)c3c(=O)n(C)c(=O)n(C)c3n2)cc1 (stereo not drawn)	2%
COC(=O)c1cccc(NC2=NS(=O)(=O)c3ccccc32)c1	9%
COc1ccc(-c2nc3scc(CCNS(=O)(=O)c4ccc(Oc5ccccc5)cc4)n3n2)cc1	-6%
Cc1ccc(C)c(Cn2c(=O)n(Cc3ccccc3)c(=O)c3sc4ccccc4c32)c1	-2%
COc1cc(C(=O)NCC(c2cccnc2)N2CCc3ccccc3C2)cc(OC)c1OC (stereo not drawn)	-3%
COCCn1c(=N)c(C(=O)NC2CCCC2)cc2c(=O)n3cc(C)ccc3nc21	-2%

Four compounds already listed, ordered by count of non-hydrogen atoms, falling:
SMILES	miR-21 reporter
COc1cc(C(=O)NCC(c2cccnc2)N2CCc3ccccc3C2)cc(OC)c1OC (stereo not drawn)	-3%
Cc1ccc(C)c(Cn2c(=O)n(Cc3ccccc3)c(=O)c3sc4ccccc4c32)c1	-2%
Cc1ccc(S(=O)(=O)NCC2CCC(C(=O)NCCc3ccc(Cl)cc3)CC2)cc1 (stereo not drawn)	-3%
COC(=O)c1scc(-c2ccc(C)cc2)c1S(=O)(=O)Nc1cccc(Cl)c1C	11%

Remaining list, next part.
SMILES	miR-21 reporter
Cc1ccc(C)c(N2CCN(C(=O)NCc3noc4ccccc34)CC2)c1	-5%
COc1ccc(-n2c(SCc3ccccc3F)nc3c([nH]c4ccccc43)c2=O)cc1OC	13%
Cc1ccc(C)c(N2CCN(S(=O)(=O)c3ccc(-c4cnc(C5CC5)o4)cc3)CC2)c1	22%
Clc1ccc(-c2nnn3c2nc(N2CCCCC2)c2ccccc23)cc1	-4%
CCc1ccc(CSc2nc(-c3ccccc3OC)nc3c2Cc2c(CO)cnc(C)c2O3)cc1	-5%
COc1ccccc1C(=O)NCC(c1ccc(N(C)C)cc1)N1CCc2ccccc21 (stereo not drawn)	-10%
CCC(=O)N1CCc2cc(S(=O)(=O)Nc3cc(C)ccc3OC)ccc21	-1%
N#Cc1ccc(-c2cccs2)nc1SCc1ccc(Br)cc1	-30%
Cc1cc(C)n2nc(SCC(=O)Nc3cc(Cl)ccc3C)nc2n1	6%
CCc1ccc(-n2nc(C)c3c(C)cc(=O)n(CC(=O)NCc4ccc(C)cc4)c32)cc1	1%
O=S(=O)(c1ccc(Cl)cc1)c1nc(-c2ccco2)oc1SCc1ccc(F)cc1	?
CN(C)c1ccc(CN(CC2CCCO2)C(=O)COc2ccc(Cl)cc2)cc1 (stereo not drawn)	?
CCSc1ncc(Cl)c(C(=O)Nc2ccc(S(=O)(=O)Nc3nccc(C)n3)cc2)n1	-15%
Cc1cccn2c(=O)c3cc(C(=O)NCc4ccccc4)c(=N)n(CCOCCO)c3nc12	-8%
Cc1ccc(C)c(CN2C(=O)c3ccccc3S(=O)c3ccc(C(=O)NCc4ccccc4Cl)cc32)c1 (stereo not drawn)	-3%
Cc1ccc(Cn2c(C)c3cnn(CC(=O)NCCc4ccc(Cl)cc4)c(=O)c3c2C)cc1	-1%
Cc1nc(-c2ccc(C)c(S(=O)(=O)N3CCC(C(=O)NCc4ccc(F)cc4)CC3)c2)no1	20%
Cc1ccc2oc(=O)c3cc(C(=O)N(Cc4ccccc4)C(C)C)sc3c2c1	-3%
Cc1ccc(OCc2nc3ccccc3n2CC(C)C)cc1	-27%
Cc1cccc(NC(=O)c2sc3nc(N4CCOCC4)c4c(c3c2N)CC(C)(C)OC4)c1	-5%
O=S(=O)(c1cccc(C(F)(F)F)c1)N1CCC(Oc2ccc(-n3cnnn3)cc2)CC1	19%
COc1ccc(CNC(=O)CCc2nnc3n(C)c(=O)c4sccc4n23)cc1	0%

Only part of the results is shown; count on the stated rates, not on these rows.
